Screening results deposited in PubChem BioAssay by several laboratories.
PrP UTR inh: inhibition of PrP 5' UTR reporter expression; inhibition, % (test concentration not listed); actives 0.35% (n = 340,000); cell-based PrP 5' UTR mRNA reporter, plate reader;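 active = every replicate at 50% or more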;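 also: 0 = median of the neutral control wells; tested in H4 reporter cells; numbers are from one replicate; inactives centre near -14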
Autofluor counter: counter-screen for toxin protease inhibitors: compound fluorescence | compound autofluorescence counterscreen, microsphere flow cytometry; hits give high values | fluorescence intensity (no concentration beside the values) | actives 3.1% (n = 360,000);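 active = at least 3 SD above the mean of all compounds, about 16000 in these data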;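 also: 100 nL of 1 mM stock went into each well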
Numbers without * were called inactive; & = joins results of further samples. Not all compounds are listed, so the mix of outcomes need not match the whole.

Screening COc1ccc(C(=O)N/N=C(\Cc2ncc[nH]2)c2ccccc2)cc1 returned PrP UTR inh -20 and Autofluor counter 3264.
O=C(N/N=C/c1ccco1)c1ccc(C(=O)N/N=C/c2ccco2)o1 was read as PrP UTR inh -14 and Autofluor counter 2059.
Screening CC1(C)O[C@@H]2[C@H](O1)[C@@H](COS(=O)(=O)O)O[C@H]2n1cc(Br)c(=O)[nH]c1=O returned PrP UTR inh -3 and Autofluor counter 3776.
`COc1ccc2c(c1)C(NC(C)=O)CCc1cc(OC)c(OC)c(OC)c1-2` (configuration not stated) gave PrP UTR inh 42 and Autofluor counter 2908.
Screening C[C@@H](OC(=O)c1[nH]cnc1C(=O)NCc1ccc(CNC(=O)OC(C)(C)C)cc1)c1ccccc1 returned PrP UTR inh -9 and Autofluor counter 4003.
Screening C=CC[C@@H](CC(=O)N(CCO)Cc1ccccc1)C(=O)NC[C@@H](OC(=O)[C@@H](CC=C)Cc1ccc(F)cc1)c1ccccc1 returned PrP UTR inh -2 and Autofluor counter 4119.
For COC(=O)C1=C(c2cccc(C#N)c2)C[C@@H]2CC[C@H]1N2C(=O)NCCc1ccccc1 the results were PrP UTR inh -9 and Autofluor counter 3212.
For OCC1OC(n2cnc3c(NCc4ccco4)ncnc32)C(O)C1O (configuration not stated) the results were PrP UTR inh 15 and Autofluor counter 3893.
`COC(=O)/C=C\C(C#N)(C#N)N=Cc1ccc(OC)cc1` gave PrP UTR inh 27 and Autofluor counter 3045.
CN1CCC[C@@H]1CCNC(=O)c1cccc2c1C(=O)c1ccc(N3CCCC3)cc1S2(=O)=O was read as PrP UTR inh -21 and Autofluor counter 5482.
COc1ccc2c(c1)OC[C@H]1[C@H]2N2C(=O)c3cc(F)ccc3NC(=O)[C@@]2(C)[C@H]1c1ccccc1 was read as PrP UTR inh 1 and Autofluor counter 4148.
Screening COC(=O)C1=C(c2ccc(OCc3ccccc3)cc2)C[C@@H]2CC[C@H]1N2C(=O)NCc1ccc(N(C)C)cc1 returned PrP UTR inh -12 and Autofluor counter 3819.
Screening Cc1ccc(S(=O)(=O)NC(=O)N2CCCC2)cc1 returned PrP UTR inh 16 and Autofluor counter 4254.
`CNC1(c2ccc(F)cc2)CCCCC1` gave PrP UTR inh -31 and Autofluor counter 4234.
For COc1ccccc1C=C1SC(=S)NC1=O the results were PrP UTR inh -13 and Autofluor counter 2861.
Screening CNc1c2cccc(C)c2nc2c(C(=O)NCCN(C)C)cccc12 returned PrP UTR inh 96* and Autofluor counter 4154.
COC(=O)C1=C(c2ccc(OC)c(OC)c2)C[C@@H]2CC[C@H]1N2C(=O)N1CCC(C)CC1 was read as PrP UTR inh -14 and Autofluor counter 4404.
For Nc1ccc(C(=O)N/N=C/c2ccc(N3CCOCC3)s2)cc1 the results were PrP UTR inh -23 and Autofluor counter 8748.
For COc1ccc(C(=O)NCC(=O)N/N=C/c2cn(C)c3ccccc23)cc1OC the results were PrP UTR inh -7 and Autofluor counter 6247.
For COc1ccc(OC)c(NC(=O)C(C)OC(=O)c2cc3ccccc3[nH]2)c1 (configuration not stated) the results were PrP UTR inh 29 and Autofluor counter 3907.
Screening COc1ccccc1-n1nnnc1SCC(=O)NCC1(N2CCCCC2)CCCCC1 returned PrP UTR inh 3 and Autofluor counter 3726.
Screening O=C(c1ccc(COc2ccccc2)o1)N1CCN(S(=O)(=O)c2ccccc2Cl)CC1 returned PrP UTR inh -9 and Autofluor counter 4681.
Screening O=[N+]([O-])c1cc(Br)ccc1C[n+]1ccccc1 returned PrP UTR inh 9 and Autofluor counter 5874.
For Cc1ccc(S(=O)(=O)Nc2ccc3cn[nH]c3c2)cc1 the results were PrP UTR inh -9 and Autofluor counter 3807.
Screening C[C@H](CO)N1C[C@H](C)[C@@H](CN(C)CC2CC2)Oc2c(NS(=O)(=O)c3ccccc3)cccc2C1=O returned PrP UTR inh -29 and Autofluor counter 3461.
`CN(C)c1nc(N)c(C#N)c(C#N)c1C#N` gave PrP UTR inh 8 and Autofluor counter 3209.
`CC(=O)c1ccc(OCc2cn(CC(=O)c3ccc(O)cc3)nn2)cc1` gave PrP UTR inh -13 and Autofluor counter 3778.
CCOC(=O)[C@H]1[C@H]2COc3ccc(C)cc3[C@@H]2N2C(=O)c3cc(F)ccc3NC(=O)[C@@]12C was read as PrP UTR inh -18 and Autofluor counter 3987.
C[C@H]1CN=C(N(C)C)N1CCC1CCCC1 was read as PrP UTR inh -23 and Autofluor counter 4349.
`OC[C@H]1O[C@@H](Oc2ccc(O)cc2)[C@H](O)[C@@H](O)[C@@H]1O` gave PrP UTR inh -13 and Autofluor counter 5961.

As a short view, part of the list above:
`CC(=O)c1ccc(OCc2cn(CC(=O)c3ccc(O)cc3)nn2)cc1` gave PrP UTR inh -13 and Autofluor counter 3778.
CCOC(=O)[C@H]1[C@H]2COc3ccc(C)cc3[C@@H]2N2C(=O)c3cc(F)ccc3NC(=O)[C@@]12C was read as PrP UTR inh -18 and Autofluor counter 3987.
C[C@H]1CN=C(N(C)C)N1CCC1CCCC1 was read as PrP UTR inh -23 and Autofluor counter 4349.
`OC[C@H]1O[C@@H](Oc2ccc(O)cc2)[C@H](O)[C@@H](O)[C@@H]1O` gave PrP UTR inh -13 and Autofluor counter 5961.

Further results.
`FC(F)(F)c1ccc(-c2cccc3c2C2CC3CCN2)cc1` (configuration not stated) gave PrP UTR inh -2 and Autofluor counter 2958.
For COc1ccc2sc(-c3ccc(S(C)(=O)=O)cc3)c(-c3ccc4c(c3)OCCO4)c2c1 the results were PrP UTR inh -2 and Autofluor counter 4110.
CCOC(=O)[C@H]1[C@H]2COc3ccc(Cl)cc3[C@@H]2N2C(=O)c3cc(C)ccc3NC(=O)[C@@]12C was read as PrP UTR inh -11 and Autofluor counter 3322.
Screening COc1cccc(C2=CC(=O)C[C@H](c3ccc(Cl)cc3)C2)c1OC returned PrP UTR inh -14 and Autofluor counter 4165.
Screening CN(/C(=N/S(=O)(=O)c1cccs1)c1ccccc1)c1ccc(O)cc1 returned PrP UTR inh 6 and Autofluor counter 4793.
`COCCn1c(C)cc(/C=N/NC(=O)c2cc3ccccc3cc2O)c1C` gave PrP UTR inh -26 and Autofluor counter 7787.
CCOc1ccc(NC(=O)CN2C(=O)NC(C)(c3ccc4c(c3)OCCCO4)C2=O)cc1OCC (configuration not stated) was read as PrP UTR inh -10 and Autofluor counter 1967.
`Nc1nc(-c2ccccc2)c(CCCOc2ccc([N+](=O)[O-])cc2)c(=O)[nH]1` gave PrP UTR inh -41 and Autofluor counter 3644.
C=C1C(=O)OC2C1CCC(C)=C1C(=O)C3OC3(C)C12 (configuration not stated) was read as PrP UTR inh -29 and Autofluor counter 5614.
`COC(=O)C1=C(c2ccc(F)cc2OCc2ccccc2)C[C@@H]2CC[C@H]1N2C(=O)NCc1ccc([N+](=O)[O-])cc1` gave PrP UTR inh -16 and Autofluor counter 4279.
Cn1[nH]cc(C=NC(N)=O)c1=O was read as PrP UTR inh -26 and Autofluor counter 4178.
COc1ccc(NC(=O)Nc2ccc3c(c2)C(=O)N([C@H](C)CO)C[C@H](C)[C@@H](CN(C)S(=O)(=O)c2ccc(F)cc2)O3)cc1 was read as PrP UTR inh -17 and Autofluor counter 2954.
CCc1ccccc1N=Cc1c(C)c(C#N)c2[nH]c3ccccc3n2c1=O was read as PrP UTR inh -17 and Autofluor counter 5220.
Screening CN(C)c1ccc(/C=N\NC(=S)SCN2C(=O)C3CCC(C)(C2=O)C3(C)C)cc1 (configuration not stated) returned PrP UTR inh -7 and Autofluor counter 4141.
`O=C(NCCCCCCCCNC(=O)c1cccc2ccccc12)c1cccc2ccccc12` gave PrP UTR inh -46 and Autofluor counter 3249.
For COc1ccccc1C=NNc1nc(C)cc(=O)[nH]1 the results were PrP UTR inh -19 and Autofluor counter 3097.
For C[C@H]1CN=C(N(C)C)N1CCC1CCCCC1 the results were PrP UTR inh -16 and Autofluor counter 4189.
Screening C[C@H](CO)N1C[C@H](C)[C@@H](CN(C)S(C)(=O)=O)Oc2ccc(NC(=O)Nc3ccc4c(c3)OCO4)cc2C1=O returned PrP UTR inh 2 and Autofluor counter 4288.
For CC(=NNC(=S)N1CC2CCC(CC2)C1)c1cccc(C)n1 the results were PrP UTR inh -9 and Autofluor counter 2732.
`N#C/C(=C\c1ccc(OC(=O)c2ccc(Br)s2)cc1)c1nc2ccccc2[nH]1` gave PrP UTR inh -30 and Autofluor counter 2189.
Screening CN(C)C1=NC[C@H](Cc2ccccc2)N1CCCC1CCCC1 returned PrP UTR inh -6 and Autofluor counter 2966.
For Cn1cnc2nc[nH]c2c1=O the results were PrP UTR inh 55* and Autofluor counter 5758.
`C[C@H](O)[C@@H]1C(=O)N2CCc3ccc(-c4cccc(F)c4)cc3[C@@H]2C[C@@H]1N(C)C(=O)C(C)(C)C` gave PrP UTR inh 14 and Autofluor counter 4011.
CC/C(=N\NC(=O)CNC(=O)/C=C/c1ccco1)c1ccccc1 was read as PrP UTR inh -16 and Autofluor counter 3193.
Screening CN1CCc2cc3c(cc2[C@H]1[C@@H]1OC(=O)c2c1ccc1c2OCO1)OCO3 returned PrP UTR inh -8 and Autofluor counter 5217.
For CCCCOC(=O)C1=C(C)NC(=O)NC1c1ccc2c(c1)OCO2 (configuration not stated) the results were PrP UTR inh -21 and Autofluor counter 4367.
For CCC(=O)OC(Cc1ccccc1)(c1ccccc1)C(C)CN(C)C (configuration not stated) the results were PrP UTR inh -5 and Autofluor counter 5140.
C[n+]1c2cc(N)ccc2cc2ccc(N)cc21 was read as PrP UTR inh -25&-10 and Autofluor counter 7253&3938.
For COCC(Cc1ccccc1)NC(=O)Cn1cc(C)c(=O)[nH]c1=O (configuration not stated) the results were PrP UTR inh -24 and Autofluor counter 3907.
COc1ccc(C(=O)c2ccccc2C(=O)c2ccccc2)cc1 was read as PrP UTR inh -11 and Autofluor counter 3683.

Some of these compounds in order of length of the SMILES, falling:
Screening CN1CCc2cc3c(cc2[C@H]1[C@@H]1OC(=O)c2c1ccc1c2OCO1)OCO3 returned PrP UTR inh -8 and Autofluor counter 5217.
For COCC(Cc1ccccc1)NC(=O)Cn1cc(C)c(=O)[nH]c1=O (configuration not stated) the results were PrP UTR inh -24 and Autofluor counter 3907.
For CCCCOC(=O)C1=C(C)NC(=O)NC1c1ccc2c(c1)OCO2 (configuration not stated) the results were PrP UTR inh -21 and Autofluor counter 4367.
For CCC(=O)OC(Cc1ccccc1)(c1ccccc1)C(C)CN(C)C (configuration not stated) the results were PrP UTR inh -5 and Autofluor counter 5140.
Screening CN(C)C1=NC[C@H](Cc2ccccc2)N1CCCC1CCCC1 returned PrP UTR inh -6 and Autofluor counter 2966.

Remaining list, next part:
For C[C@H](CO)N1C[C@H](C)[C@@H](CN(C)C(=O)Nc2ccc(C(F)(F)F)cc2)Oc2c(cccc2N(C)C)C1=O the results were PrP UTR inh 0 and Autofluor counter 3055.
For Nc1cc(Nc2ccccc2)ccn1 the results were PrP UTR inh -19 and Autofluor counter 3654.
For CC(=O)OC1CCC2(C)C(CCC3C2CC(=NO)C2(C)C(C(C)OC(C)=O)CCC32)C1 (configuration not stated) the results were PrP UTR inh -8 and Autofluor counter 3849.
For COc1ccc2nc(NN=C(C)c3ccccn3)cc(C)c2c1 the results were PrP UTR inh -15 and Autofluor counter 2908.
Screening O=C(C[C@H]1C/C=C\C[C@@H](Cc2ccc(F)cc2)C(=O)OC[C@H]2CCCN2C1=O)N[C@@H](CO)Cc1ccccc1 returned PrP UTR inh -50 and Autofluor counter 3873.
Screening COC1=CC(=O)[C@@]2([C@@H]1O)[C@@H](Cl)C[C@]13C(OC)=C(OC)C(=O)C[C@]21CCN3C returned PrP UTR inh -18 and Autofluor counter 3417.
Screening Cc1ccc2nc(N3C(=O)C(O)=C(C(=O)c4ccc(C)o4)C3c3ccco3)sc2c1 (configuration not stated) returned PrP UTR inh -31 and Autofluor counter 4204.
Screening C[C@H]1[C@@H](OS(=O)(=O)O)C[C@@H]2C[C@H]([C@@H](O)c3cc(=O)[nH]c(=O)[nH]3)NC3=NC[C@H]1N32 returned PrP UTR inh 61* and Autofluor counter 5554.
Screening O=C(CCl)N(O)c1ccc(C=Cc2ccccc2)cc1 returned PrP UTR inh -85 and Autofluor counter 4227.
For O=C(O)C1(Br)CC12c1ccccc1-c1ccccc12 (configuration not stated) the results were PrP UTR inh 54* and Autofluor counter 3498.
Screening CC(C)(C)[C@@H]1COC(=O)[C@H](Cc2ccc(F)cc2)CC/C=C\C[C@@H](CC(=O)N(CCO)Cc2ccccc2)C(=O)N1 returned PrP UTR inh -1 and Autofluor counter 3800.
For Cc1cccc(C(=O)OCC(=O)N2CCc3ccccc3C2)c1O the results were PrP UTR inh 23 and Autofluor counter 4400.
For Cc1ccccc1/C=C/C1=NCCN1 the results were PrP UTR inh -20 and Autofluor counter 5927.
O=C(CSc1nc2[nH]c(=O)cc(O)c2s1)Nc1nncs1 was read as PrP UTR inh -14 and Autofluor counter 3667.
CC1(C)CCC[C@]2(C)[C@H]3Cc4cc(O)ccc4O[C@]3(C)CC[C@@H]12 was read as PrP UTR inh -23 and Autofluor counter 3069.
For C[C@H](CO)N1C[C@H](C)[C@@H](CN(C)S(C)(=O)=O)Oc2ccc(NC(=O)C3CC3)cc2C1=O the results were PrP UTR inh -4 and Autofluor counter 4057.
Screening CN1C[C@@H]2[C@@H]3C(=O)N(C)C(=O)[C@@H]3[C@](Cc3ccccc3)(C1=O)N2C(=O)c1ccc(F)cc1 returned PrP UTR inh -16 and Autofluor counter 2980.
`CCCc1nc(SCC(=O)c2ccc3c(c2)NC(=O)CO3)[nH]c(=O)c1CC` gave PrP UTR inh -8 and Autofluor counter 4028.
For CCN1C[C@@H]2[C@@H]3C(=O)N(Cc4ccccc4)C(=O)[C@@H]3[C@](Cc3ccccc3)(C1=O)N2C(=O)c1ccccc1 the results were PrP UTR inh -16 and Autofluor counter 4063.
`O=c1cc(-c2ccccc2)oc2ccc(Cl)cc12` gave PrP UTR inh -44 and Autofluor counter 3900.
